# FGF22 binding: binders of human FGF22 protein, primary screen, FGF22 synaptogenesis inhibitor project, biophysical, thermal shift, single point; AID 651658, 2012; calls only at 9.99 µM; recombinant FGF22 thermal shift, SYPRO orange fluorescence; percent of sucrose octasulfate shift, DMSO zero; Fibroblast growth factor 22 (Homo sapiens), Q9HCT0; actives 1.5% (n = 340,000);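 active = melting point raised past a set limit in the mean and every replicate; three in four hits are not shown here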
# Target sequence (Q9HCT0 whole entry, looked up): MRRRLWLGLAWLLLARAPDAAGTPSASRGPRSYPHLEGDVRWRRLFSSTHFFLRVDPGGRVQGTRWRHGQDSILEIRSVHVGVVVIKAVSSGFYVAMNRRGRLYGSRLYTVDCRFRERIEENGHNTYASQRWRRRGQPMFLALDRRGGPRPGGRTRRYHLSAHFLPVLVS
# B2AR ag: beta2AR agonists driving receptor internalization, primary screen, cell-based, FAP fluorogen, flow cytometry. Beta-2 adrenergic receptor (Homo sapiens), P07550. Am2.2-beta2AR cells; reference of the scale not given here. response, % (no concentration beside the values). actives 0.43% (n = 340,000);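 active = response above a set limit, near 3 SD of response in nonfluorescent compounds, cut at about 42% in these data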;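 note: stock transfer was 100 nL into about 11 µL; a reference agonist was the positive control; negative values mostly stem from fluorescent compounds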
# Ecoli rRNA inh: reduced GFP signal of wild-type E. coli, primary screen, bacterial rRNA inhibitor project, GFP/RFP fluorescence, OD600, single point. actives 1.6% (n = 350,000). AID 720706, 2013. E. coli WT GFP vs humanized-ribosome RFP mutants, 24 h; hits give low values; DMSO median 0, no signal -100. GFP signal change (wild-type ribosome), % (test concentration not listed);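 active = significant combined selectivity score with lowered wild-type GFP, culture density cut under 30%, mutant RFP and density less affected; inactive = any of these conditions unmet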; note: one replicate is shown; some compounds called inactive have numbers as strong as hits
# HNF4A DNA FP: change in binding of human HNF4A to DNA, primary screen, biochemical, fluorescence polarization, FITC-DNA | 1 h | Hepatocyte nuclear factor 4-alpha (Homo sapiens), P41235 | actives 0.3% (n = 360,000) | activity change, % at 10 µM; in the data active = activity change above about 30%, passing the limit was not always enough;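 note: controls were the assay level and a saturating level of protein; the project sought stronger binding though the title names inhibitors; some compounds called inactive have numbers as strong as hits; positive values seem to mean higher polarization but the record does not say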
# ALR inh: inhibitors of human ALR sulfhydryl oxidase, primary screen, biochemical, H2O2 detection, HRP-luminol luminescence, single point | purified ALR, DTT oxidation | inhibition, % (no concentration beside the values) | actives 3.8% (n = 290,000) | AID 485317, 2010;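 active = mean and each replicate at 75% or more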;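 note: stock transfer was 7.5 nL into about 7.5 µL; 0% = neutral wells and 100% = wells with inactivated enzyme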
# Target sequence (P55789 whole entry, looked up): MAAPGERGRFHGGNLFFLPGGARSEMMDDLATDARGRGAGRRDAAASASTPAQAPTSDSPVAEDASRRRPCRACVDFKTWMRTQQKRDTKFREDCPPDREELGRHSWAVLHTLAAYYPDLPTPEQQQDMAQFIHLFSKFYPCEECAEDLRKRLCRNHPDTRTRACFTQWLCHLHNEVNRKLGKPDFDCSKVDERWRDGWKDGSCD
# Ecoli growth: E. coli growth inhibition, primary screen, OD600 | Escherichia coli growth, 23 h; hits give low values | OD600 absorbance (concentration not given with the values) | actives 0.21% (n = 330,000) | AID 1053175, 2014;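 active = OD600 absorbance below the run mean of sample wells minus 3.6 SD, in any replicate, cut at about 0.56 in these data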;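 note: stock transfer was 300 nL into about 60 µL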
# UCH37 inh: inhibitors of human UCH37 deubiquitinase, primary screen, biochemical, Ub-AMC cleavage, fluorescence | inhibition, % (no concentration beside the values) | purified proteasome/UCH37 | Ubiquitin carboxyl-terminal hydrolase isozyme L5 (Homo sapiens), Q9Y5K5 | actives 0.33% (n = 330,000);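 active = mean of two replicates above 20%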;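 note: 0% = compound-free wells with enzyme and 100% = wells lacking proteasome; stock transfer was 100 nL into about 20 µL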
# Target sequence (Q9Y5K5 whole entry, looked up): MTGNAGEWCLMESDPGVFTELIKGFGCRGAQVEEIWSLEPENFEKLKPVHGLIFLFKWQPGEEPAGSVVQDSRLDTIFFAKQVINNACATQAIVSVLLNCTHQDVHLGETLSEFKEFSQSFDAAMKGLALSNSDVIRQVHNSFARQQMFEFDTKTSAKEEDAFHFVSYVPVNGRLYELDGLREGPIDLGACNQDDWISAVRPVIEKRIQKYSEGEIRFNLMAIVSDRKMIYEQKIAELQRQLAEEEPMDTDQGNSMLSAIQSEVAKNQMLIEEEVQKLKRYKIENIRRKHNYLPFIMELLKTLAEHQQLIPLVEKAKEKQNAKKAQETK
#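 Reagent: Ub-AMC substrate; assay system: Proteasome-associated human UCH37 deubiquitinase; controls: no-proteasome and no-compound wells; read-out: % inhibition of Ub-AMC cleavage fluorescence; timing: 30 min preincubation with enzyme, 25 min cleavage at room temperature; signal: AMC fluorescence from Ub-AMC cleavage, excitation 355 nm, emission 460 nm; buffer or medium: Tris-HCl pH 7.4 plus ovalbumin, ATP-MgCl2, DTT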
# Ecoli rRNA inh OD600: further read-out of Ecoli rRNA inh, marked with its call; OD600 change, %; measured here: OD600 growth;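 optical density of the mix in the first replicate; 0 = DMSO median and -100 = no signal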
# Ecoli rRNA inh RFP: also measured in Ecoli rRNA inh; calls as there; RFP signal change, %; measured here: RFP humanized mutant strains;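 first replicate; 0 = DMSO median and -100 = no signal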
# Starred values were filed as active, the others as inactive; i = inactive; · = not tested or not shown; + = active, no number.
SMILES,FGF22 binding,B2AR ag,Ecoli rRNA inh,Ecoli rRNA inh OD600,Ecoli rRNA inh RFP,HNF4A DNA FP,ALR inh,Ecoli growth,UCH37 inh
CC1(C)CC(=O)C(C=Nc2ccc(C(=O)c3ccccc3)cc2N=CC2=C(O)CC(C)(C)CC2=O)=C(O)C1,i,11,17,-19,47,1.8,-10,0.69,5.0
Cc1cc(C)nc(SCC(=O)Oc2ccc3oc(=O)cc(C)c3c2)n1,·,-1,·,·,·,4.2,26,0.77,4.9
Cc1ccc(S(=O)(=O)n2ccc(=O)[nH]2)cc1,i,-7,11,11,7.5,-0.9,-1,0.66,0.4
Cc1ccc(C(C)C)cc1OCC(=O)Nc1ccc(N2CCCCC2)cc1,i,-7,-8,-12,-3.3,-4.6,6,0.63,-0.7
COc1cccc(C2NC(=O)NC(C)=C2C(=O)OCCSC)c1OC (configuration not stated),·,-4,·,·,·,1.0,20,0.69,4.9
Cc1ccc(Cn2nnc3c(=O)n(Cc4ccccc4C)cnc32)cc1,i,-11,10,15,0.1,-2.1,-10,0.71,5.5
CC1(C(=O)NS(=O)(=O)c2ccccc2Cl)CCN1C(=O)CCc1cccs1 (configuration not stated),i,·,3,14,4.0,0.7,·,·,·
CC(C)CNS(=O)(=O)c1ccc(S(=O)(=O)N2CCCN(Cc3ccccc3)C2)cc1,i,-4,1,0,0.9,0.7,1,0.63,0.9
CCN(CC(=O)Nc1c(F)cccc1F)C(=O)c1ccc(Sc2nncn2C)c([N+](=O)[O-])c1,i,4,5,7,-0.9,-2.3,-9,0.63,7.9
C/C(N)=C(/C#N)C(=O)COc1ncnc2ccccc12,·,5,·,·,·,0.7,·,0.71,2.2
CC(=O)O[C@H](CC(=O)O)C[N+](C)(C)C,i,7,·,·,·,0.1,-23,·,2.8
CCC(C)c1ccc(OCC(=O)Nc2ccc(CN3CCOCC3)cc2)cc1 (configuration not stated),i,5,-9,-19,4.0,-0.9,-6,0.66,0.3
Cc1nn(C)cc1S(=O)(=O)Nc1cccc(Cl)c1,i,9,·,·,·,-1.2,-4,0.66,1.5
O=C(O)c1ccc(C(=O)Nc2cccc3ccccc23)c(C(=O)O)c1,i,0,-16,-41,-1.0,-3.6,40,0.67,-12
Cc1nc(-c2ccccc2)sc1-c1nnc(C2CC2)o1,i,-13,2,14,-4.4,6.5,1,0.67,-84
Cn1cc(Br)c(C(=O)Nc2nccs2)n1,·,-4,·,·,·,-0.7,-4,0.62,3.5
CCOc1ccc(C(=O)COC(=O)c2c(-c3ccccc3)noc2C)cc1,i,-5,1,-12,-3.3,-4.1,-12,0.72,6.8
Cc1ccc(CNC(=O)CCn2c(=O)oc3ccccc32)cc1,i,-3,4,13,-2.9,4.1,-1,0.72,3.2
Cc1sc(=NC(=O)c2ccco2)n(C)c1-c1ccc(F)cc1,·,-4,·,·,·,0.9,3,0.67,-3.7
COc1cc2c(cc1OC)C(C)N(C(=O)c1cccs1)CC2 (configuration not stated),i,-6,-3,-6,0.9,3.4,-24,0.7,0.8
CCOC(=O)c1sc(=S)n(-c2ccccc2OC)c1N,·,-2,·,·,·,-1.7,45,0.77,12
O=C1OCCN1C(=O)[C@H]1[C@H](c2ccc(F)cc2)C(c2cccc(Cl)c2)=NN1c1ccccc1,i,4,4,11,-2.7,-2.1,·,0.69,-389
Cc1cc(=O)[nH]c(SCC(=O)Nc2ccc(N3CCCCC3)cc2)n1,i,1,-12,-17,-3.1,-2.3,92*,0.67,1.8
CCc1cccc(NS(=O)(=O)c2ccc3c(c2)NC(=O)CC(=O)N3)c1,+,4,5,4,2.0,2.4,·,0.66,-0.1
COC(=O)[C@]1(CC(C)C)N[C@H](c2ccc(-c3ccc(C(C)=O)cc3)cc2)[C@@H]2C(=O)N(C)C(=O)[C@@H]21,i,-5,7,7,-6.1,3.0,-7,·,0.5
Nn1cc(-c2ccccc2)nc1SCC(=O)NCCN1C(=O)CSC1=O,·,-2,·,·,·,-1.6,0,0.72,0.4
CC(C)(C)OC(=O)C1C(=O)CC(C)(O)C(C(=O)OC(C)(C)C)C1c1ccco1 (configuration not stated),·,2,·,·,·,-1.0,-4,0.7,0.2
CN(C)S(=O)(=O)c1ccc(Cl)c(NC(=O)COC(=O)/C=C/c2ccco2)c1,i,-6,15,4,3.4,-1.8,2,0.7,3.0
CC(C)(C)S(=O)(=O)c1cnc2c(S(=O)(=O)c3ccccc3)cnn2c1N,i,-8,1,-16,1.3,0.4,-24,0.69,5.8
Cc1cc(NC(=O)CSCc2ccccc2C)no1,i,-1,-5,-7,-1.0,4.5,29,0.64,-0.1
C#CCOCCOCCOCCNc1nc(N2CCN(C(=O)[C@H](CCC(=O)O)n3cc(C(N)CC(C)C)nn3)CC2)nc(N2CCN(C(=O)[C@H](CCC(=O)O)n3cc(C(N)[C@H](C)CC)nn3)CC2)n1 (some centres not stated),·,14,·,·,·,2.8,-3,·,2.9
CCOc1ccccc1-c1noc(CCC(=O)NC2CCCCC2)n1,·,-2,2,0,-5.8,2.3,1,0.7,3.2
Cc1cc(C)cc(OCC(=O)OCC(=O)NC2CCCCCC2)c1,i,-1,1,9,-3.1,-2.3,·,0.71,4.1
Cc1cc(=O)[nH]c2c(N=Nc3ccc(O)cc3)c(N)nn12,i,-3,-1,0,1.9,-2.5,·,0.66,19
CCOC(=O)C1CCCN(C(=O)c2cc3c(-c4cccc(OC)c4)nn(C)c3s2)C1 (configuration not stated),·,2,·,·,·,5.9,-3,0.73,1.2
CCN(CC)CCCNC(=S)N(Cc1cccnc1)Cc1cc2cc(C)ccc2[nH]c1=O,i,-15,12,11,-1.3,-1.4,-2,0.71,-6.7
CN(CC(=O)Nc1ccc(Cl)cc1F)C1CCS(=O)(=O)C1 (configuration not stated),i,8,5,3,3.0,-0.8,-2,0.7,-3.3
Cc1cccc(NC(=O)c2cc(-c3ccco3)nc3ccccc23)n1,·,-1,·,·,·,-0.3,1,0.76,-54
NS(=O)(=O)c1ccc(CCNC2CC(=O)N(Cc3ccccc3)C2=O)cc1 (configuration not stated),·,-5,·,·,·,0.1,-4,0.68,-1.3
O=C1C2C3c4ccccc4C(c4ccccc43)C2C(=O)N1Cc1ccco1 (configuration not stated),·,3,·,·,·,-2.0,·,0.75,3.7
O=C(Nc1c(F)c(F)c(F)c(F)c1F)c1ccc(Br)o1,i,·,-6,-7,-2.0,1.1,·,·,·
COc1ccc(N(CC(=O)NCCc2ccccc2)C(=O)c2csnn2)cc1OC,i,-3,10,6,2.2,-0.8,1,·,·
CNC(=S)N/N=C(\C)c1ccc2c(c1)OCO2,·,-5,·,·,·,1.3,10,·,·
COc1cccc(NC(=O)N2CCN(c3nc(-c4cccc(OC)c4)cs3)CC2)c1,i,27,-30*,-19*,-2.5*,-1.2,-1,0.72,2.0
CNc1c(C(=O)O)ccc2c1C(=O)c1ccccc1C2=O,i,6,-10,0,-7.3,6.4,-10,0.64,9.9
O=[N+]([O-])c1ccc(S(=O)(=O)Nc2nc3ccccc3nc2Nc2ccccc2)cc1,i,20,8,13,4.7,0.1,-14,·,·
Cn1c(=O)c([N+](=O)[O-])c(Cl)c2ccccc21,i,89*,-11,-8,-5.4,-3.1,·,0.71,4.9
O=C(Nc1cccc(O)c1)C1CCCN1C(=O)OCc1ccccc1 (configuration not stated),·,-1,·,·,·,3.0,·,0.78,4.0
CN(C)c1ccc(P(=O)(OCc2ccccc2)C(O)c2ccccc2)cc1 (configuration not stated),i,-4,-20*,-11*,2.0*,-0.3,-2,0.69,2.9
O=Cc1ccc(OCC(=O)Nc2ccccc2-c2ccccc2)cc1,·,-11,-44,-54,-10,3.4,-3,0.65,-0.5
OC[C@H]1O[C@@H](c2nc(-c3ccc(CN4CCOCC4)cc3)no2)[C@H](O)[C@@H](O)[C@H]1O,i,·,2,7,-3.7,0.7,·,·,·
Cc1nc(SCC(C)C)[nH]c(=O)c1Cc1ccccc1,·,-8,·,·,·,0.3,-6,0.75,0.4
O=C(CCN1CCN(c2ccc([N+](=O)[O-])cc2)CC1)c1ccc(Cl)cc1,i,1,-1,9,6.9,2.6,-3,·,·
COc1ccc(Br)cc1/C=N/NC(=O)C(c1ccncc1)N1CCOCC1 (configuration not stated),i,6,8,16,1.1,0.2,-6,·,·
O=c1[nH]c(CSc2nnnn2-c2ccc(Cl)cc2)nc2ccccc12,i,-4,-1,6,-0.8,11,-10,0.68,5.8
Nc1nc(-c2ccc([N+](=O)[O-])cc2)cc(=O)[nH]1,i,3,·,·,·,0.1,·,0.68,6.0
CCC(C)[C@H](NC(=O)Nc1cccc(OC)c1)C(=O)OC (some centres not stated),·,1,·,·,·,-2.5,-6,0.66,-0.1
C/C(=N/NC(=O)c1ccc(Br)o1)c1ccc(C)o1,i,-2,6,21,0.8,1.8,6,·,·
COCCNc1nc(-n2nc(C)cc2C)nc2sc3c(c12)CCCC3,·,-3,·,·,·,-1.5,-6,·,·
Cc1ccc(SCc2[nH]nc3c2C(c2ccco2)C(C#N)=C(N)O3)cc1 (configuration not stated),·,1,·,·,·,5.3,·,0.66,1.2

# Compound profiles, from the list above.
# `C/C(=N/NC(=O)c1ccc(Br)o1)c1ccc(C)o1` is listed with FGF22 binding: i; B2AR ag: -2; Ecoli rRNA inh: 6; Ecoli rRNA inh OD600: 21; Ecoli rRNA inh RFP: 0.8; HNF4A DNA FP: 1.8; ALR inh: 6; Ecoli growth: ·; UCH37 inh: ·
# `COCCNc1nc(-n2nc(C)cc2C)nc2sc3c(c12)CCCC3` is listed with FGF22 binding: ·; B2AR ag: -3; Ecoli rRNA inh: ·; Ecoli rRNA inh OD600: ·; Ecoli rRNA inh RFP: ·; HNF4A DNA FP: -1.5; ALR inh: -6; Ecoli growth: ·; UCH37 inh: ·

# (continued)
SMILES,FGF22 binding,B2AR ag,Ecoli rRNA inh,Ecoli rRNA inh OD600,Ecoli rRNA inh RFP,HNF4A DNA FP,ALR inh,Ecoli growth,UCH37 inh
CCCNc1nc(C)cc(-c2cc(C(=O)NCc3ccccc3)on2)n1,i,0,-17,-24,2.7,-2.6,1,0.69,0.5
CN(C)CCNc1ncnc2oc(-c3ccccc3)c(-c3ccccc3)c12,i,12,-11,-12,3.1,-0.2,-9,0.64,-24
Cc1ccc(-c2nnc(Nc3ccc(CC(N)=O)cc3)c3ccccc23)cc1S(=O)(=O)NCCO,i,-2,-3,16,-0.7,3.8,0,0.7,6.5
CCOC(=O)C1CCN(C(c2cc3c(C)ccc(C)c3[nH]c2=O)c2nnnn2C2CCCCC2)CC1 (configuration not stated),·,9,·,·,·,6.8,-6,0.65,0.1
CC1CC(=S)Nc2ccccc2S1 (configuration not stated),·,-1,·,·,·,-0.4,3,0.64,1.9
C=CCSc1nc2c(c(=O)[nH]c(=O)n2C)n1Cc1ccc(C)cc1,i,-10,-3,5,-4.0,-0.9,-21,0.76,-2.2
CC(C)[C@H](NC(=O)C1CCN(S(=O)(=O)c2ccccc2)CC1)C(=O)NCc1ccccc1,i,8,20,14,-0.7,2.9,-1,0.64,0.3

# An excerpt; the hit share may differ from the screen's.
